NS1 inh: qHTS Assay for Inhibitors of Influenza NS1 Protein Function | S. cerevisiae slowed by influenza A NS1, growth recovery by OD600 | Potency, µM (doses to about 46.1 µM), for the others: at the top dose activity, positive = more growth | 0.4% of 270,000 active; also: actives are rising curves; nearly all actives have a fitted effect of over 50% in size
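OD600 was taken as the measure of yeast growth restored by compound in an NS1-expressing S. cerevisiae strain. Cells had been washed out of glucose medium and diluted 1:100 into galactose -URA medium, pH 6.0.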
SARS PLpro yeast: qHTS of Yeast-based Assay for SARS-CoV PLP | S. cerevisiae expressing SARS-CoV PLpro, growth rescue; control for the full effect not named in the record | Potency, µM (series often up to 32.9 µM), for inactives: at the top dose activity, positive = growth rescue | 0.19% of 330,000 active | AID 485353, 2010; also: 0% is about no effect; nearly all actives have a fitted effect of over 55% in size; growth read by luminescence after 48 h
* = called active by the depositor; ? = inconclusive; [ ] = another dose, or the depositor's remark. Calls follow the shape of the dose curve; as a rule, active means well fitted rising curve with a large enough effect; inconclusive means small, poorly fitted or top-dose-only effect; inactive means no such curve, though single readings can be large or run the other way. Potency is read from the fitted curve at half-maximal effect.

structure | NS1 inh | SARS PLpro yeast
O=C(O)CCN1C(=O)/C(=C2\C(=O)N(Cc3ccccc3Cl)c3ccccc32)SC1=S | ? | 1%
O=C(CN1CCC(NC(=O)c2ccco2)CC1)Nc1ccccc1[N+](=O)[O-] | 1% | 0%
O=C1c2ccccc2C(=O)N1CCCC[C@]12Cc3ccccc3C(O1)c1c(c3ccccc3oc1=O)O2 | 17% | -5%[6.58 µM]
O=C(c1ccc2c(c1)OCO2)N1CCC2(CC1)Oc1ccc(Cl)cc1C(=O)C21CC(c2ccc(Cl)cc2)=NO1 (stereo not drawn) | 0% | 1%
CCCCC[C@]12Cc3cc(OC)c(OC)cc3[C@H](O1)c1c(cc(C)oc1=O)O2 | 3% | -1%[6.58 µM]
CCn1c(=O)c2cc(C(=O)N3CCN(C(=O)c4ccco4)CC3)sc2c2ccccc21 | -61% | 2%
O=C1/C(=C\c2ccco2)SC(=S)N1C1CCCCC1 | 20% | -6%
CC1(C)CC2(CC(c3ccccc3)Oc3cc(O)ccc32)NC(=O)N1 (stereo not drawn) | -2% | 1%
O=C(/C=C/c1ccccc1)NC1CCCc2ccccc21 (stereo not drawn) | 0% | -2%
C#CCOCCOCCOCCNc1nc(N2CCN(C(=O)[C@H](CCC(=O)O)n3cc(C(N)[C@H](C)CC)nn3)CC2)nc(N2CCN(C(=O)[C@H](Cc3cc4ccccc4[nH]3)n3cc(C(N)[C@H](C)CC)nn3)CC2)n1 (stereo partly drawn) | -4% | 1%
O=C(N/N=C/c1ccccn1)c1ccc(Cl)c(Cl)c1 | -101% | 14%
COc1ccc(N2CCN(C(=O)c3ccc4c(c3)NC(=O)C(CSCc3cccc(F)c3)N4)CC2)cc1 (stereo not drawn) | 25% | ?
O=C(CSc1nc2[nH]ncc2c(=O)[nH]1)c1ccc(Cl)cc1 | 3% | -1%
O=C1Nc2cc(C(=O)N3CCC4(CC3)OCCO4)ccc2NC1CSCc1cccc(F)c1 (stereo not drawn) | 26% | -3%
C#CCOCCOCCOCCNc1nc(N2CCN(C(=O)C([C@@H](C)CC)n3cc(C(N)CO)nn3)CC2)nc(N2CCN(C(=O)[C@H](CCC(=O)O)n3cc(C(N)[C@H](C)CC)nn3)CC2)n1 (stereo partly drawn) | 4% | 1%
Cc1cc(Nc2cccc(O)c2)c2ccccc2n1 | 0% | -6%

Structures from the list above that have a furan ring, fused or not:
structure | NS1 inh | SARS PLpro yeast
O=C(CN1CCC(NC(=O)c2ccco2)CC1)Nc1ccccc1[N+](=O)[O-] | 1% | 0%
CCn1c(=O)c2cc(C(=O)N3CCN(C(=O)c4ccco4)CC3)sc2c2ccccc21 | -61% | 2%
O=C1/C(=C\c2ccco2)SC(=S)N1C1CCCCC1 | 20% | -6%

Following part.
structure | NS1 inh | SARS PLpro yeast
CCC[C@H]1COCCS(=O)(=O)N1Cc1ccc(Br)cc1 | -23% | -7%
Cc1ccc(/C=N/n2c(C)nc3ccccc3c2=O)s1 | -7% | -5%
O=C1OC2(CCCCC2)CC2=C1C1O[C@](c3ccsc3)(Cc3ccccc31)O2 | -13% | -6%[6.58 µM]
COC(=O)C1CCCCN1C(=O)c1cc(COc2cccc3cnccc23)on1 (stereo not drawn) | -22% | -9%
O=C(Nc1ccnc(-c2cccnc2)n1)c1ccc(F)cc1 | 6% | 0%
COc1ccc(OC)c(C2C(C(=O)c3ccco3)=C(O)C(=O)N2CCN2CCOCC2)c1 (stereo not drawn) | 0% | -1%
Cc1scc(C(=O)N/N=C/c2ccc([N+](=O)[O-])o2)c1C | -21% | -9%
COCCn1c(CN2CCN(c3ccc(F)cc3)CC2)nc2c1c(=O)n(C)c(=O)n2C | -1% | -2%
C#CCOCCOCCOCCNc1nc(N2CCN(C(=O)[C@H](CCCCN)n3cc([C@@H](N)CO)nn3)CC2)nc(N2CCN(C(=O)[C@H](Cc3cc4ccccc4[nH]3)n3cc([C@@H](N)CO)nn3)CC2)n1 | 1% | -1%
CCCCN1C(=O)/C(=C2/Sc3ccc(Cl)cc3N2CC)SC1=S | -8% | 14%
CC(=O)c1ccc(C(=O)Nc2sc3c(c2C(N)=O)CCN(Cc2ccccc2)C3)cc1 | 11% | 4%
C[N+](C)(C)C(Cc1c[nH]c2ccccc12)C(=O)[O-] (stereo not drawn) | 3% | 0%
O=C(O)C1Nc2c(cccc2C(F)(F)F)C2C=CCC12 (stereo not drawn) | 7% | -1%
O=C(Cc1ccc(Br)cc1)Nc1ccc(S(=O)(=O)N2CCCC2)cc1 | -2% | -5%
CC(OC(=O)c1ccc(Cl)c(S(=O)(=O)N2CCCC2)c1)C(=O)NC1CCCCC1C (stereo not drawn) | -5% | 4%
COC(=O)C1C=C2c3cccc4[nH]cc(c34)CC2N(C)C1 (stereo not drawn) | 15% | -1%

Continued; the last 5 above are carried over.
structure | NS1 inh | SARS PLpro yeast
C[N+](C)(C)C(Cc1c[nH]c2ccccc12)C(=O)[O-] (stereo not drawn) | 3% | 0%
O=C(O)C1Nc2c(cccc2C(F)(F)F)C2C=CCC12 (stereo not drawn) | 7% | -1%
O=C(Cc1ccc(Br)cc1)Nc1ccc(S(=O)(=O)N2CCCC2)cc1 | -2% | -5%
CC(OC(=O)c1ccc(Cl)c(S(=O)(=O)N2CCCC2)c1)C(=O)NC1CCCCC1C (stereo not drawn) | -5% | 4%
COC(=O)C1C=C2c3cccc4[nH]cc(c34)CC2N(C)C1 (stereo not drawn) | 15% | -1%
Cc1cc(=O)[nH]c(S)c1C#N | 2% | 2%
Cc1c(Cl)ccc2c(C(=O)NC(C)c3ccncc3)cc(-c3ccncc3)nc12 (stereo not drawn) | 0% | 0%
CC(=O)c1ccc(OC(=O)c2cc3ccccc3oc2=O)cc1 | 0% | 0%
COc1ccc(N(CC(=O)N/N=C/c2ccc3c(c2)OCO3)S(=O)(=O)c2ccccc2)cc1 | 4% | 3%
Cc1cccc(NC(=O)C2C3C=CC(O3)C2C(=O)O)c1 (stereo not drawn) | -2% | -26%
CS(=O)(=O)C1=NSC2=NC(=O)/C(=C\c3ccc(OC(=O)c4ccco4)cc3)C(=N)N21 | -19% | 0%
O=C1/C(=C/c2ccc([N+](=O)[O-])cc2)CCc2ccccc21 | -5% | -3%
COc1cc(OC)cc(N(C(=O)c2snc(C(N)=O)c2N)C(C(=O)NCC2CCCO2)c2ccc(C)o2)c1 (stereo not drawn) | 21% | 2%

Reformatted as labelled records: entries from further up.
> CC(=O)c1ccc(OC(=O)c2cc3ccccc3oc2=O)cc1
- NS1 inh = 0%
- SARS PLpro yeast = 0%
> COc1cc(OC)cc(N(C(=O)c2snc(C(N)=O)c2N)C(C(=O)NCC2CCCO2)c2ccc(C)o2)c1 (stereo not drawn)
- NS1 inh = 21%
- SARS PLpro yeast = 2%

(continued)
Screens in order: NS1 inh, SARS PLpro yeast
> CC(=O)c1cc2c(cc1NS(=O)(=O)c1ccccc1C)OCO2
 : -1%, 0%
> CN(CCCC[C@H](CNCc1ccc(-c2ccccc2)cc1)N1C[C@H](c2ccccc2)N(CCc2ccc(Cl)c(Cl)c2)C(=O)C1=O)Cc1ccc(-c2ccccc2)cc1
 : -11%, -13%
> COc1cc(/C=C2\C(=N)N3N=C(S(=O)(=O)CC(C)C)SC3=NC2=O)ccc1OC(=O)c1ccco1
 : ?, 0%
> Nc1nc(SCC(=O)NCCc2ccccc2)[nH]c(=O)c1-c1ccccc1
 : 8%, 0%
> O=C(COc1cccc2c1CCN(Cc1ccccc1F)C2=O)N1CCOCC1
 : -4%, 0%
> Cc1cc(C)nc(/N=C2\NC(=O)CC(C(=O)O)N2c2ccc(F)c(Cl)c2)n1 (stereo not drawn)
 : 3%, 1%
> Cc1ccc(S(=O)(=O)N2C(=O)/C(=C3\SC(=S)NC3=O)c3ccccc32)cc1
 : -2%, -1%
> Cc1[nH]c2ccccc2c1C(=O)CSc1nc2ccccc2c(=O)n1-c1ccccc1F
 : 2%, 1%
> CN(C)c1ccc2c3c(cccc13)C(=O)N(c1ccccc1)C2=O
 : -1%, 0%
> c1ccc2oc(-c3ccc(Nc4nc(N5CCCC5)nc(N5CCOCC5)n4)cc3)nc2c1
 : 3%, 0%
> CCOc1ccc(CCNC(=O)c2ccc3c(c2)NC(=O)C2CCCN32)cc1OCC (stereo not drawn)
 : 4%, -2%
> Nc1cc(=O)[nH]c(SCC(=O)Nc2nc3ccc([N+](=O)[O-])cc3s2)n1
 : 5%, 0%
> CC(C(=O)N1CCCC1)N(c1ccccc1)S(C)(=O)=O (stereo not drawn)
 : 17%, 14%
> O=C(NCc1ccccc1)C1CCCC1
 : 28%, 1%
> O=C(O)Cn1cc(/C=C2\C(=O)NC(=O)N(c3ccc(F)cc3)C2=O)c2ccccc21
 : 4%, 2%
> Cc1ccccc1N1C(=O)/C(=C/c2ccco2)C(=O)NC1=S
 : 6%, 0%
> CN1C(=O)/C(=C/c2cn(CC(=O)NCc3ccco3)c3ccccc23)NC1=S
 : 1%, 1%
> NNC(=O)c1oc2nc(-c3cccs3)cc(-c3ccco3)c2c1N
 : 17%, 1%
> N#C/C(=C/c1ccc(Br)o1)C(N)=S
 : ?, -1%
> Cn1c(=S)[nH]c2sc3c(c2c1=O)CCC(C(C)(C)C)C3 (stereo not drawn)
 : -2%, -3%
> COc1cc(OC)c2c(-c3ccccc3)cc(=O)oc2c1C(CC(=O)N1CCN(c2ccccc2)CC1)c1ccc2c(c1)OCO2 (stereo not drawn)
 : ?, -1%
> NC1=NC(c2ccccc2)N=C(Nc2ccccc2)N1 (stereo not drawn)
 : -20%, -1%
> O=C(O)c1ccc2c(c1Sc1ccccc1)C(=O)c1ccccc1C2=O
 : 2%, -1%
> Cc1ccc(NC(=O)CSc2nnc(-c3cccs3)o2)cc1S(=O)(=O)N(C)C
 : 2%, 1%
> COc1ccc(C)c2sc(NNC(=O)COc3ccccc3)nc12
 : ?, 0%
> COc1ccc(C(=O)Nc2ccc(N3CCN(C(C)=O)CC3)cc2)cc1[N+](=O)[O-]
 : 5%, -1%
> O=C(O)CSc1nnc(-c2ccc(Cl)cc2)n1-c1ccccc1
 : 23%, 11%
> C/C=C/C=C/[C@H]1Cc2cc(O)cc(O)c2O1
 : -3%, 2%
> CC(=O)Cc1c[nH]c2ccccc12
 : 0%, 1%
> Cc1cc2c(c(=O)n1Cc1ccccc1)C1O[C@](CCCCN3C(=O)c4ccccc4C3=O)(Cc3ccccc31)O2
 : -18%, 2%[6.58 µM]
> Cc1cc(C)c(O)c(N)c1
 : -6%, -5%
> Nc1cccc2c1nnn2C1OC(CO)C(O)C(O)C1O (stereo not drawn)
 : 7%, -1%
> CCOC(=O)c1c(C)[nH]c(C(=O)OCC(=O)c2c(N)n(C)c(=O)n(C)c2=O)c1C
 : 7%, 0%
> CNC(=S)N(CCc1c(C)[nH]c2ccc(Cl)cc12)Cc1cccs1
 : 6%, -3%
> COc1cccc(C2C3=C(CCCC3=O)NC3=C2C(=O)c2ccccc23)c1 (stereo not drawn)
 : 7%, 0%
> C=CCn1c(=O)/c(=C2/Sc3ccccc3N2CC)s/c1=C1/C(=O)NN=C1C
 : 2%, 0%
> CCn1c(-c2cc(-c3ccc(C)c(C)c3)nc3ccccc23)n[nH]c1=S
 : 5%, -2%
> Cc1[nH]n(-c2ccccc2)c(=O)c1C=NCc1ccco1
 : -4%, 0%
> O=[N+]([O-])c1cccc(-c2nc(N3CCOCC3)c3ccccc3n2)c1
 : 1%, 0%
> C#CCOCCOCCOCCNc1nc(N2CCN(C(=O)[C@H](Cc3cc4ccccc4[nH]3)n3cc([C@@H](N)C(C)CC)nn3)CC2)nc(N2CCN(C(=O)[C@H](Cc3cc4ccccc4[nH]3)n3cc([C@@H](N)CC(C)C)nn3)CC2)n1 (stereo partly drawn)
 : 5%, -2%
> COc1ccc(-c2nn(-c3ccccc3)cc2/C=N/Nc2ccccn2)cc1
 : 3%, 0%
> CCN1C(=NCCCCO)N[C@@H](c2ccccc2)C(C(=O)OC)=C1C
 : 10%, -11%
> CC1=CC(=O)c2c(O)ccc(O)c2C1=O
 : 8%, 0%
> CCCc1cc(=O)oc2c3c(c(Cl)cc12)OCN(CCCO)C3
 : 6%, 3%
> Oc1c(Br)cc(/C=N/n2c(-c3ccccc3)n[nH]c2=S)c(Br)c1O
 : 0%, ?
> CCOC(=O)C1=C(C)N=c2s/c(=C/c3cccc(OCC(=O)O)c3)c(=O)n2C1c1ccc(F)cc1 (stereo not drawn)
 : 12%, 1%
> COc1ccc2c3c(c(=O)oc2c1)C1O[C@](CCCCN2C(=O)c4ccccc4C2=O)(Cc2c1ccc1ccccc21)O3
 : -7%, 8%[6.58 µM]
> CC(=O)O[C@H]1CC[C@]2(C)[C@H]3CC=C4[C@@H]5[C@@H](C)[C@H](C)CC[C@]5(C(=O)O)CC[C@@]4(C)[C@]3(C)CC[C@H]2C1(C)C
 : 10%, 0%
> Cc1ccnc(NC(=O)CSc2nnc3c(n2)[nH]c2ccccc23)c1
 : 1%, 0%
> Cn1c(-c2nnn(-c3ccc(F)cc3)n2)cc2ccccc21
 : -4%, -1%
> COc1cc2c(cc1NC(=O)COC(=O)c1ccccc1)oc1ccccc12
 : 7%, -1%
> N=C1/C(=C\c2ccc(OCc3ccccc3)cc2)C(=O)N=C2SC(N3CCCC3)=NN12
 : 3%, 2%
> COc1ccc(OCCOc2cccc(C=C3C(=O)NC(=O)NC3=O)c2)cc1
 : -32%, 0%
> O=C(Nc1cccnc1Cl)c1cccc(F)c1
 : 7%, 0%
> COC(=O)CC1C(=O)NC(C)=C1C(=O)OC (stereo not drawn)
 : 2%, 0%

An excerpt; the hit share may differ from the screen's.
